VDR inh = Inhibitors of the vitamin D receptor (VDR): qHTS; VDR-SRC2-3 peptide fluorescence polarization, 2 h; hit rate 0.93% among 400,000; Potency, µM, without a hit: max response, negative = inhibition, most hits filed as inhibitors; Vitamin D3 receptor (Homo sapiens), P11473; active means well fitted inhibition curve with a large enough effect; inconclusive means small, poorly fitted or top-dose-only effect, or another doubt; inactive means no such curve, though single readings can be large or run the other way; further: series mostly up to about 120 µM
Target sequence (P11473 whole entry, looked up): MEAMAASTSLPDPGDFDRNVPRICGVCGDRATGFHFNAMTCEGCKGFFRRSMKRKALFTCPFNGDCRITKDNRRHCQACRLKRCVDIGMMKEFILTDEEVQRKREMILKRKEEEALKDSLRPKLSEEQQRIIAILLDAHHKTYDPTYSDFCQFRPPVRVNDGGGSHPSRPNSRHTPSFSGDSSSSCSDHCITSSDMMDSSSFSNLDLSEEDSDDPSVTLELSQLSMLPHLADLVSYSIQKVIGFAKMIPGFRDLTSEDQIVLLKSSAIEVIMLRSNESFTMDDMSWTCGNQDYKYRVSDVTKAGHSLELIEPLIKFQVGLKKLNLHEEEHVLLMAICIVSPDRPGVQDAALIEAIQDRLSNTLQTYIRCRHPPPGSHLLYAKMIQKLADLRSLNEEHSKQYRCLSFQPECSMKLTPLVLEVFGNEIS
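Fluorescence polarization assay of small-molecule disruption of VDR binding to coregulator peptide SRC2-3. Compounds and controls pin-transferred, then read after 2 h incubation at ambient room temperature.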
Active calls of the source: *; ? = inconclusive; & = joins results of further samples. On the % scale 0 is the no-effect control and ±100 the full control effect; potency means the concentration at half of the fitted maximal effect. The list is partial, so the mix of outcomes need not match the whole.

SMILES	VDR inh
Cc1ccnc(NS(=O)(=O)c2ccc(CC(C)C)cc2)c1	-3.9%
CC(C)n1c(C(F)(F)F)nc2cc(C(=O)N3CCCCC3)ccc21	0.2%
CCC1CCCCN1C(=O)c1ccccc1OC1CCN(S(C)(=O)=O)CC1 (stereo not drawn)	-2.1%
COc1cccc(C2=CC(=O)CC(C)(C)C2)c1OC	-9.2%
CCCOc1cccc(C(=O)NCCNC(=O)c2ccccn2)c1	-5.4%
O=C1OCCN1C(=O)[C@H]1[C@H](c2ccc(F)cc2)C(c2ccccc2)=NN1c1ccccc1	-6.7%&8.2%
CSc1ncccc1C(=O)NCc1nnc2ccccn12	7.9%
Cc1cc(C)c(C)c(S(=O)(=O)ON2C(=O)c3ccccc3C2=O)c1C	22.4µM*
O=C(O)/C(=C\c1ccco1)NC(=O)c1ccccc1	-8.2%
O=C(CN(Cc1ccco1)C(=O)c1cccc(Cl)c1)Nc1c(Cl)cc(Cl)cc1Cl	0.6%
Cc1cc(SCc2ccccc2C)nc(=O)[nH]1	15.1%
CCOCCCN(C(=O)c1snc(C(N)=O)c1N)C(C(=O)NCCC(C)C)c1ccc(Cl)cc1 (stereo not drawn)	-20.0%
CC(C)C1Oc2cc3oc(=O)ccc3cc2C1=O (stereo not drawn)	24.6%
COc1ccc(N(CC(=O)Nc2cc(OC)cc(OC)c2)S(=O)(=O)c2c(C)n[nH]c2C)cc1	2.5%
Cc1cc(NC(=O)CCCC(=O)N(c2ccccc2)C(C(=O)NC2CCCCC2)c2cccs2)no1 (stereo not drawn)	-7.2%
CC(/C=C1\SC(=S)N(CCCC(=O)Nc2ccc(C(=O)O)c(O)c2)C1=O)=C\c1ccccc1	?
O=C(NC1CC1)C1CCCN(C(=O)Nc2ccc(F)cc2)C1 (stereo not drawn)	7.2%
Cc1cc(=O)oc(C)c1C(=O)NCc1cccnc1	-13.8%
O=C1CS/C(=C\[N+](=O)[O-])N1c1ccc(OC(F)(F)F)cc1	22.7%
O=C(Cn1cc(C(=O)C2CC2)c2ccccc21)Nc1ccccc1Cl	-25.1%
COc1cccc2cc(-c3nnc(Nc4c(F)cccc4F)s3)c(=O)oc12	-1.3%
COc1cc(NS(=O)(=O)c2ccc3[nH]c4c(c3c2)CCCC4)cc(OC)c1OC	10.0%
COc1cc(-c2noc(C)c2C(=O)NCc2ccc(C)o2)cc(OC)c1OC	-4.0%
Cc1cn(CC(=O)N[C@H](C)c2cccc3ccccc23)c(=O)[nH]c1=O	-5.2%
O=C(c1ccc([N+](=O)[O-])o1)N1CCc2ccccc21	2.3%
Cc1ccc(C)n1-c1nc(=S)[nH][nH]1	31.6µM*
Cc1ccc(CNC(=O)C2(S(=O)(=O)c3ccc(C)cc3)CC2)cc1	-10.4%
O=C(CCS(=O)(=O)c1nc(-c2ccc3c(c2)OCO3)cc(C(F)(F)F)n1)Nc1ccccc1F	39.8µM*
COc1ccc(N2CCN(C(=O)CNC(=O)c3ccccc3Cl)CC2)cc1	2.2%
C1CCc2c(c(N3CCOCC3)nc3sc4c(N5CCOCC5)nnnc4c23)C1	-3.1%
CNC(=O)CSc1nc2cccnc2n1-c1ccc(F)cc1	10.4%
COc1cc(NC(=O)NCCN2CCN(c3ccccc3)CC2)cc(OC)c1OC	-7.3%&-9.2%
O=Cc1cc(N=Nc2cccc(C(=O)O)c2)ccc1O	-19.3%
COC(=O)Cn1cnc(C(=O)Nc2ccc(C)c(C)c2)n1	-7.9%
CC(N=Cc1c(O)c2ccccc2oc1=O)C(=O)O (stereo not drawn)	-2.6%
COc1ccccc1CNC(=O)CN1C(=O)CSc2ccc(S(=O)(=O)N3CCCC3)cc21	-15.7%&0.6%
COc1cccc(NC(=O)COC(=O)Cn2c(C)csc2=O)c1	-23.1%
CCCC(=O)Nc1ccc(NC(=O)c2ccccc2F)cn1	-3.0%
COc1ccc(N2CCN(C(=O)CCCN3C(=O)c4cccc5cccc(c45)C3=O)CC2)cc1	-12.6%
COc1ccc(/C=C/C(=O)c2ccc(O)cc2O)cc1	?
O=C(Nc1ccccc1C(F)(F)F)N1CCN(c2ccc3nncn3n2)CC1	11.6%
Cc1ccc(C(=O)Nc2ccncc2)o1	3.8%
Cc1ccc(C)c(NC(=O)c2cc(C)nc3ccccc23)c1	-16.9%
Cn1c(COc2ccccc2O)[n+](C)c2ccccc21	0.2%
Cc1cccc(NC(=O)c2ccccc2OCC(=O)N2CCOCC2)c1C	5.5%
COc1ccc(-c2nc(C)c(CCNC(=O)c3cccs3)s2)cc1OC	2.4%
CC(C)c1cc(N2CCN(C(=O)c3ccco3)CC2)n2c(nc3ccccc32)c1C#N	-4.1%
COc1ccc(C(=O)c2oc3ccccc3c2NC(=O)COc2cccc(C)c2)cc1	-4.4%
Cc1ccc(SCCNC(=O)c2cccc([N+](=O)[O-])c2C)cc1	21.6%
COC(=O)Cc1cc(=O)[nH]c(/N=C(\N)Nc2ccccc2C)n1	-22.7%
Cc1cc(C)n(C(=O)c2cc3c(s2)CCCC3)n1	-6.1%
CCN(C(=O)COc1ccc(C(=O)c2ccccc2)cc1)c1ccccc1	-16.1%
C=CCN(CC=C)C(=O)CN1C(=O)NC(c2ccccc2)(c2ccccc2)C1=O	8.9%
Cc1ccc(C(=O)c2cn[nH]c2-c2cc(Cl)ccc2O)cc1	-6.2%
Cc1nnc(C)c2c(C)n(-c3ccc4ncccc4c3)c(C)c12	2.8%
Cc1ccccc1CNC(=O)c1ccc(-c2nc(CS(=O)(=O)c3ccccc3)c(C)o2)cc1	9.7%
COc1ccc(OC)c(NC(=O)c2csc(Cl)c2OC)c1	-4.0%
CC(C)(C)NC(=O)CN(C(=O)CS(=O)CC(=O)Nc1ccc(F)cc1)c1ccc(F)c(Cl)c1 (stereo not drawn)	11.5%
Cc1ccc(C)c(NC(=O)c2nnn(Cc3ccccc3C)c2N)c1	-12.3%
COc1ccc(CCNC(=S)N2CCN(S(=O)(=O)c3cccc(F)c3)CC2)cc1	-20.8%

Among those listed so far, these have a COOH group.
SMILES	VDR inh
O=C(O)/C(=C\c1ccco1)NC(=O)c1ccccc1	-8.2%
CC(/C=C1\SC(=S)N(CCCC(=O)Nc2ccc(C(=O)O)c(O)c2)C1=O)=C\c1ccccc1	?
O=Cc1cc(N=Nc2cccc(C(=O)O)c2)ccc1O	-19.3%
CC(N=Cc1c(O)c2ccccc2oc1=O)C(=O)O (stereo not drawn)	-2.6%

New compounds follow:
SMILES	VDR inh
COc1ccc(S(=O)(=O)N(C)C[C@H]2Oc3ccc(NS(=O)(=O)c4ccccc4)cc3CC(=O)N([C@H](C)CO)C[C@@H]2C)cc1	12.4%
COc1ccccc1-n1cc(CN2CCN(CC=C(C)C)C(CCO)C2)cn1 (stereo not drawn)	-2.7%
CC(=O)Nc1ccc(S(=O)(=O)Nc2nccc(/C=C/c3ccc(Cl)cc3)n2)cc1	3.5%
CC(C(=O)NCCS(=O)(=O)c1ccc(Br)cc1)S(=O)(=O)c1ccc(Cl)cc1 (stereo not drawn)	-1.0%
CC(C)(C)c1ccc(C(=O)OCc2c(-c3ccccc3)ncc3ccccc23)cc1	7.3%
CN(C)c1ccc(C(=O)/C=C/c2ccco2)cc1	-1.0%
O=C(N1CCCCC1)N1CCCN(C(=O)N2CCCCC2)CC1	18.0%
Cc1cnn(C(=S)NCC2CCCO2)c1 (stereo not drawn)	6.1%
O=C(N1CCCC1)C12CCC3CC(CC(C3)C1)C2	6.1%
CC1CCCN(CC(O)COc2ccc(-c3ccccc3)cc2)C1 (stereo not drawn)	10.2%
Cc1ccccc1OCC(=O)NCC(=O)OCc1ccc(Br)cc1	?
CCOc1ccc2nc(NC(=O)c3cccc(-c4cc5ccccc5oc4=O)c3)sc2c1	22.9%
CNC(=O)Cn1nc(C)c2ccccc2c1=O	5.4%
CCOC(=O)C(CC)n1cnc2c(oc3ccccc32)c1=O (stereo not drawn)	15.9%
Cc1ccc(-n2c(SCC(=O)N3CCOCC3)nnc2-c2ccncc2)cc1C	-17.9%
COc1ccc(OCc2cc(=O)c3ccc4c(c3o2)C=CC(C)(C)O4)cc1OC	-8.9%
Cc1ccc(OCC(=O)Oc2c(C)cccc2C)cc1	-15.8%
O=C(CN(C(=O)CCC(=O)Nc1ccccn1)c1ccccc1F)NCc1ccc2c(c1)OCO2	-3.8%
COC(=O)c1sccc1NS(=O)(=O)c1ccc(OC)cc1	1.9%
Cc1ccc(C)c(N2CCN(c3nc4ccccc4n4c(C)nnc34)CC2)c1	4.5%

Some of these compounds in order of the VDR inh value, descending:
SMILES	VDR inh
O=C(CCS(=O)(=O)c1nc(-c2ccc3c(c2)OCO3)cc(C(F)(F)F)n1)Nc1ccccc1F	39.8µM*
Cc1ccc(C)n1-c1nc(=S)[nH][nH]1	31.6µM*
Cc1cc(C)c(C)c(S(=O)(=O)ON2C(=O)c3ccccc3C2=O)c1C	22.4µM*

Continuation.
SMILES	VDR inh
COc1ccccc1NC(=O)N(Cc1ccccc1)C1=NCC(C)S1 (stereo not drawn)	6.3%
O=C(C1=COCCO1)N1CCN(c2nc3ccc([N+](=O)[O-])cc3s2)CC1	-8.3%
N#Cc1nc(-c2cccc3ccccc23)oc1NCCN1CCCCC1	15.7%
CCC(=O)N1c2ccccc2CC1C(=O)N1CCN(c2cccc(OC)c2)CC1 (stereo not drawn)	-0.4%
Cc1ccccc1-c1nc(CS(=O)CC(=O)NC2CC2)c(C)o1 (stereo not drawn)	-9.7%
CC1CCCCC1NC(=O)c1ccc(S(=O)(=O)NCC2CCCO2)cc1 (stereo not drawn)	7.1%
CCOC(=O)c1cc(C)n(Cc2cccc(OC)c2OC)c1C	5.6%
CCn1c(SCC(=O)Nc2ccc(OC)cc2)nc2nc3c(cc2c1=O)COC(C)(C)C3	-8.2%
O=C(c1ccccc1)N1CCC(c2nc3c(nnn3Cc3ccco3)c(=O)[nH]2)CC1	-2.4%
COc1cccc(C(=O)c2cn(CC(=O)Nc3cc(Cl)c(OC)cc3OC)c3nc(C)ccc3c2=O)c1	18.6%
CCC(=O)N1CCc2cc(CNS(=O)(=O)c3ccc(CC(C)C)cc3)ccc21	12.4%
Cc1cccc(OCC(=O)NCc2ccc3c(c2)CCN3C(=O)c2ccccc2)c1	3.6%
O=C(CSc1ccc2c(c1)OCCO2)Nc1ccc2c(c1)OCO2	-1.5%
O=C(Nc1ccc(N2CCOCC2)c(Cl)c1)c1ccc(-n2cnnc2)cc1Cl	5.6%
CCOC(=O)CN(C#N)c1nc(N(C)C)nc(N(C)C)n1	6.0%
O=S(=O)(/N=C(/c1ccccc1)N1CCOCC1)c1ccc(F)cc1	-5.6%
Cc1ccc(C(=O)C(OC(=O)c2cnccn2)c2ccccc2)cc1C (stereo not drawn)	-9.9%
O=C(CCC(=O)Nc1nnc(C2CCCCC2)s1)NCC1CCCO1 (stereo not drawn)	-4.9%
CC(C)(C)OC(=O)C[C@@H]1C/C=C\C[C@@H](CC(=O)N(CCO)Cc2ccccc2)C(=O)NC[C@H](c2ccccc2)OC1=O	4.3%
COc1ccc(-n2cc(C(=O)c3cc4ccccc4oc3=O)c(C(C)=O)n2)cc1	1.7%
COC1=CC(=O)c2ccccc2C1=O	-14.0%
Cc1[nH]nc2c1C(c1cccc(O)c1)C1=C(CC(C)(C)CC1=O)N2 (stereo not drawn)	-2.5%
CCOC(=O)C1CN(S(=O)(=O)c2cccc(C(F)(F)F)c2)c2cc(CC(=O)OC)ccc2O1 (stereo not drawn)	2.4%
CN1CCc2nc3sc(C(=O)c4ccc(F)cc4)c(N)c3cc2C1	-12.5%
Cn1c(=O)c2c(nc(NCCOc3ccc(C(C)(C)C)cc3)n2C)n(C)c1=O	-19.8%
Cc1ccccc1NS(=O)(=O)c1cccc2nsnc12	-13.2%
COc1ccc(Cl)cc1C(=O)NNC(=O)c1cccc(S(=O)(=O)N(C)C)c1	20.5%
COc1ccc(NC(=O)CSc2nnc(NC(=O)Nc3ccc(OC)cc3)s2)cc1	-1.2%
Cc1ccc(S(=O)(=O)NNC(=S)Nc2c(Cl)cccc2Cl)cc1	9.2%
Cc1c(Cl)cccc1NC(=O)CSc1nc(=O)n(CCCN2CCOCC2)c2c1CCC2	-6.5%
O=C(CSc1nnc(COc2ccccc2)o1)NC1CC2CCC1C2 (stereo not drawn)	-2.9%
CCOc1nc(NCCO)nc(NCCC2=CCCCC2)n1	0.2%
CCOC(=O)c1[nH]c(C)c(C(=O)NC2CCCCC2)c1C	-8.9%
CC(=O)Nc1cccc(C(=O)OCC(=O)NCc2cc(C)c(O)c(C)c2)c1	-7.5%
Cc1ccc2c(c1)N(CC(=O)NCCCN1CCOCC1)C(=O)C(C(C)C)O2 (stereo not drawn)	-10.1%
O=C(NCCc1cccc(Cl)c1)c1cccnc1	-9.3%
CCc1cc(C(=O)c2ccc(OC)cc2)c(NC(=O)CC(C)(C)CC(=O)O)s1	-23.2%
COc1ccc(C(CNC(=O)C(=O)NC2CCCCC2)N2CCN(C)CC2)cc1 (stereo not drawn)	3.8%
Cc1cc(C)n2nc(CC(=O)NNC(=O)c3ccc(N(C)C)cc3)nc2n1	-6.9%
Cc1ccc(S(=O)(=O)N2CCOCC2)cc1NC(=O)COc1ccc(C(=O)c2ccccc2)cc1	89.1µM*
Cc1ccc(C2c3[nH]c4ccccc4c3C[C@H]3C(=O)N(c4ccccc4C(=O)N4CCC(C(=O)O)CC4)C(=O)N23)cc1 (stereo partly drawn)	-13.2%
Cc1ccc2oc(-c3cc(NC(=O)CC(C)C)ccc3Cl)nc2c1	2.4%
CC(C)c1ccc(NC2CCCN(C(=O)CCN3CCCCC3=O)C2)cc1 (stereo not drawn)	0.7%
CCc1nnc(NC(=O)c2nc(S(C)(=O)=O)ncc2Cl)s1	-15.4%
Cn1c(SCC(=O)Nc2ccc(Br)cc2)nc(O)cc1=O	4.0%
COc1ccc(NC(=O)Cn2nc3n(c2=S)CCC3)cc1	3.0%

Ordered by count of non-hydrogen atoms (ascending): part of the list above.
SMILES	VDR inh
CCc1nnc(NC(=O)c2nc(S(C)(=O)=O)ncc2Cl)s1	-15.4%
Cc1ccc2oc(-c3cc(NC(=O)CC(C)C)ccc3Cl)nc2c1	2.4%
CC(C)c1ccc(NC2CCCN(C(=O)CCN3CCCCC3=O)C2)cc1 (stereo not drawn)	0.7%
